High-throughput results from PubChem BioAssay.
TRPV1 potentiator = potentiators of human vanilloid receptor 1 (TRPV1) | actives 0.02% (n = 320,000) | TRPV1-expressing cells, Fluo-8 calcium influx, capsaicin EC20 potentiation; host cell line not named in the record; control for the full effect not named in the record | potentiation, % at 8.33 µM; active means potentiation above 80%; inconclusive means 30% to 80%; inactive means below 30%; note: 0% is about no effect
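TRPV1-expressing cells were cultured overnight at 35.5C and loaded with Fluo-8 calcium dye for 40 to 90 min at room temperature. After a 10 s baseline, compound was added and calcium influx was read kinetically for 3 min (ex 480/em 520 nm).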
gsp antag = antagonists of gsp mutant (McCune-Albright syndrome); Potency, µM (doses to about 76.9 µM), without a hit: at the highest dose activity change, negative = inhibition, most hits filed as inhibitors; AID 624288; gsp-mutant cells, cAMP HTRF, 30 min; control for the full effect not named in the record; actives 0.4% (n = 340,000); active = falling curve of any shape with a large fitted effect; inconclusive = falling curve, mostly with a smaller effect; inactive = flat or rising curve; cell line not stated here;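 note: intracellular cAMP measured with PDE inhibitor Ro 20-1724 present during compound exposure; potency is the fitted concentration of half-maximal effect; % is set by controls: 0 for no effect and ±100 for the full control effect; nearly all actives have a fitted effect of over 65% in size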
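HTRF cAMP read-out (cAMP-d2 plus anti-cAMP antibody-K in lysis buffer, 30 min RT). Before lysis, cells are exposed to compounds with […] for 30 min at 37C in DPBS containing Ca/Mg, BSA and Tween 20.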
TRPML1 blocker = inhibitors of human TRPML1 channel. actives 0.02% (n = 390,000). TRPML1-inducible cells, Ca2+ dye fluorescence, FDSS; active compounds read low; inhibition of EC80 agonist-evoked calcium signal. AID 624415. activity change, negative = inhibition, % (no concentration beside the values). Q9GZU1; in the data active means activity change below about -50%; inconclusive means about -30% to -50%; inactive means above about -30%;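 note: stimulus is agonist 54-4 at its EC80 concentration; % is set by controls: 0 for no effect and ±100 for the full control effect; compound concentration not given in the record; the text of the record puts the active cut at -80%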
Target sequence (Q9GZU1 whole entry, looked up): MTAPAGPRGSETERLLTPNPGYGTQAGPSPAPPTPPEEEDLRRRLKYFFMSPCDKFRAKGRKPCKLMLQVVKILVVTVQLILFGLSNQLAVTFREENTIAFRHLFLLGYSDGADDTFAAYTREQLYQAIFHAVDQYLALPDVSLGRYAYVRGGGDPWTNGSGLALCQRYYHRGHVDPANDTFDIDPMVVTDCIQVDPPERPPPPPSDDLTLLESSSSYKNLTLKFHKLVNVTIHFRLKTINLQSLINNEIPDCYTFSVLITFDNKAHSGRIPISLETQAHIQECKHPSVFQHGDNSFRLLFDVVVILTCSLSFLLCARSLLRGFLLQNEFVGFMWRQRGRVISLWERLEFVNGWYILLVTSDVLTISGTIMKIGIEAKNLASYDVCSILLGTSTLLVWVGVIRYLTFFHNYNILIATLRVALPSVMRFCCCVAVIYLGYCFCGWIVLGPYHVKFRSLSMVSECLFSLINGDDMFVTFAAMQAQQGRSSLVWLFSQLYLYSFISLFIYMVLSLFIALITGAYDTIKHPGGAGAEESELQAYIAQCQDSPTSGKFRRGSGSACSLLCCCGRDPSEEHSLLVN
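TRPML1-DL cells, Tet-induced overnight (~16 h, 37 °C) at 1,500 cells/well, were loaded with Ca8 no-wash dye plus quencher for 45-90 min at room temperature. Compounds were pinned during FDSS kinetic reading; agonist 54-4 at EC80 (4 uM final) then added.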
ClpP mod = qHTS Assay for Activators of ClpP; ATP-dependent Clp protease proteolytic subunit (Bacillus subtilis (strain 168)), P80244; purified B. subtilis ClpP, FRET peptide cleavage, 20 min; actives 1.9% (n = 340,000); AID 651965, 2013; Potency, µM (highest dose often 57.5 µM), without a hit: top-dose activity change, negative = active; active = well fitted falling curve with a large enough effect; inconclusive = small, poorly fitted or top-dose-only effect; inactive = no such curve, though single readings can be large or run the other way; note: potency is the fitted concentration of half-maximal effect; the source files actives as falling curves though it sought activators and does not explain the sign; nearly all actives have a fitted effect of over 65% in size; many hits overshoot -100%
Target sequence (P80244 whole entry, looked up): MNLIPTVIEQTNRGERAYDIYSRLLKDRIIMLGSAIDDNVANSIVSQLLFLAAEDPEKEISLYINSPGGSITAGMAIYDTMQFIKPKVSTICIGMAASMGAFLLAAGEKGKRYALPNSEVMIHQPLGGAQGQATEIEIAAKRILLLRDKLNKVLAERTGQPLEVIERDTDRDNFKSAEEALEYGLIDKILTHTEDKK
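ClpP 10 microg/mL final, pH 8 Tris/KCl buffer with BSA, glycerol, Tween-20; compound pinned in; FRET-FV substrate; RT 20 min; Ex320/Em430; ΔFRET vs ADEP 5.8 microM, DMSO, no enzyme.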
Sfp inh = Sfp phosphopantetheinyl transferase inhibition | Biochemical Sfp PPTase activity, qHTS | Potency, µM, without a hit: max response, negative = inhibition, most hits filed as inhibitors | actives 3.5% (n = 310,000) | AID 1490; active = well fitted inhibition curve with a large enough effect; inconclusive = small, poorly fitted or top-dose-only effect, or another doubt; inactive = no such curve, though single readings can be large or run the other way;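 note: the enzyme is Sfp with the accession as filed and its product quenches rhodamine fluorescence; potency is the fitted concentration of half-maximal effect; 0% = enzyme reaction without inhibitor and -100% = no enzyme wells; top concentration of the series not given in the record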
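After 15 min at room temperature with compound, 15 nM Sfp received 5 uM rhodamine-CoA plus 12.5 uM BHQ-2-ybbR (50 mM Hepes pH 7.6, 10 mM MgCl2). Rate came from the fluorescence difference over 30 min, ex 525/em 598 nm.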
gsp agonist = agonists of gsp mutant (McCune-Albright syndrome); gsp mutant cells, cAMP HTRF, 30 min; control for the full effect not named in the record; Potency, µM (doses to about 76.9 µM), without a hit: top-dose activation (cAMP increase), usual class: activators; actives 0.13% (n = 340,000); AID 624287; active = well fitted activation curve with a large enough effect; inconclusive = small, poorly fitted or top-dose-only effect, or another doubt; inactive = no such curve, though single readings can be large or run the other way; cell line not stated here;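 note: phosphodiesterase inhibitor Ro 20-1724 added with compounds to block cAMP breakdown; potency is the fitted concentration of half-maximal effect; nearly all actives have a fitted effect of over 60% in size; about a fifth of the inactives were tested at one dose only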
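Cells in DMEM/10% FBS with G418 were pretreated with compounds in DMSO plus […] (300 uM stock) for 30 min at 37C. cAMP was measured by HTRF (cAMP-d2 plus anti-cAMP antibody-K) after 30 min at room temperature.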
Menin MLL FP FL = menin-MLL binding inhibition, fluorescein peptide. Fluorescence polarization, fluorescein-MLL peptide displacement from menin. FP activity change, % at 61.4 µM. 290,000 tested, under 10 active; inconclusive = falling polarisation curve, or a change in total fluorescence; inactive = total fluorescence flat and polarisation flat or rising; no compound was filed as active; the % refers to the polarisation; negative = inhibition;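 note: % of control where 0% means no effect; inhibitors lower the polarisation; unlabelled MLL peptide was the positive control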
Starred values were filed as active, the others as inactive; ? = inconclusive; . = no result given; & = joins results of further samples; [ ] = another dose, or the depositor's remark.

(1) O=C(CSc1nc2c([nH]c3ccccc32)c(=O)n1-c1ccc(F)cc1)NCc1ccco1
(2) CC(C)CC(=O)c1c[nH]c(C(=O)NCc2ccc(F)cc2)c1
(3) Oc1c(CN2CCOCC2)ccc(CN2CCOCC2)c1O
(4) CN1CCN(c2cc(=O)n(-c3ccc(Cl)cc3)c(=O)[nH]2)CC1
(5) Cc1ccc(OCCOCCN2CCCC2)c(Br)c1
(6) Cn1cc(CNC(=O)C2CCC(=O)N(Cc3ccccc3F)C2)cn1 (configuration not stated)
(7) COc1cc(C(C)=O)ccc1Oc1cnccn1
(8) Cc1nn(-c2ccccc2)c2[nH]c(=O)cc(C(F)F)c12
(9) C#CCOCCOCCOCCNc1nc(N2CCN(C(=O)[C@H]([C@@H](C)CC)n3cc(CCC(=O)O)nn3)CC2)nc(N2CCN(C(=O)[C@H](CCCCN)n3cc(CCCC)nn3)CC2)n1
(10) COc1ccc(-c2ccc(OC)c(C3C4C=CCC(C)C4C(=O)N3Cc3ccccc3)c2)cc1C (configuration not stated)

Screen / compound no.,1,2,3,4,5,6,7,8,9,10
TRPV1 potentiator,-19,1,.,?,-5,-6,3,12,.,.
gsp antag,-1%,5%,-1%,7%,8%,-14%,13%,0%,8%,.
TRPML1 blocker,-13&26,-15,39,8,-17,-1,4,-1,-19,-1
ClpP mod,4.2%&4.4%,1.8%,.,1.3%,-0.9%,-3.5%,3.1%,-5.7%,1.5%,.
Sfp inh,-3%,6%,.,-6%,-10%,-2%,2%,.,.,12%
gsp agonist,2%,2%,-34%[inhibitor],-33%,-11%,14%,18%[15.4 µM],-22%,.,.
Menin MLL FP FL,1.4,4.2,.,-6.1,5.1,-1.3,-6.3,.,.,-7.2

Rewritten with values under each structure: entries from further up
Results follow in this order: TRPV1 potentiator | gsp antag | TRPML1 blocker | ClpP mod | Sfp inh | gsp agonist | Menin MLL FP FL
(2) CC(C)CC(=O)c1c[nH]c(C(=O)NCc2ccc(F)cc2)c1
→ 1 | 5% | -15 | 1.8% | 6% | 2% | 4.2
(3) Oc1c(CN2CCOCC2)ccc(CN2CCOCC2)c1O
→ . | -1% | 39 | . | . | -34%[inhibitor] | .
(4) CN1CCN(c2cc(=O)n(-c3ccc(Cl)cc3)c(=O)[nH]2)CC1
→ ? | 7% | 8 | 1.3% | -6% | -33% | -6.1

(more compounds)
(11) O=C(Cc1ccc(Br)cc1)NNC(=O)Nc1ccc(Cl)cc1
(12) CC(=O)N(C)c1ccc(OCC(O)Cn2c(C)nc3ccccc32)cc1 (configuration not stated)
(13) O=C(Nc1cccc(NC(=O)c2cccc(F)c2)n1)c1cccc(F)c1
(14) CCOC(=O)c1cccc(NC(=O)CC2Oc3ccccc3NC2=O)c1 (configuration not stated)
(15) CCCc1ccc2oc(C(=O)N(Cc3ccncc3)CC3CCCO3)c(C)c2c1 (configuration not stated)
(16) Fc1ccc(-c2nn3c(C4COc5ccccc5O4)nnc3s2)cc1 (configuration not stated)
(17) CCCCOc1ccccc1-c1ccccc1CN1[C@@H](C(C)C)COCCS1(=O)=O
(18) O=C(NC1CCCc2ccccc21)C1CCN(S(=O)(=O)N2CCCCCC2)CC1 (configuration not stated)
(19) COc1ccc(NC(=O)CSc2nnc(CN3CCOCC3)n2-c2ccccc2)cc1Cl
(20) O=C(NCc1nc2ccccc2[nH]1)c1cccc(S(=O)(=O)N2CCOCC2)c1

Screen / compound no.,11,12,13,14,15,16,17,18,19,20
TRPV1 potentiator,-1,1,11,-2,-6,-4,.,-12,0,30
gsp antag,12%,1%,?,-10%,?,1%,-22%,2%,-2%,12%
TRPML1 blocker,-1,-11,-1,-9,6,17,15,-14,7,8
ClpP mod,.,.,-4.8%,-0.2%,-0.5%,4.9%,-0.7%,3.3%,1.8%,-2.9%
Sfp inh,23%,28%,3%,10%,-10%,40µM*,.,-1%,19%,2%
gsp agonist,-42%[inhibitor],-3%[15.4 µM],0%[15.4 µM],0%,-60%[inhibitor],23%,.,-37%[inhibitor],?,-2%
Menin MLL FP FL,1.2,-6.8,-4.8,-0.1,.,4.4,.,-0.5,0.9,2.2

A second format for 2 compounds above.
no. | molecule | TRPV1 potentiator | gsp antag | TRPML1 blocker | ClpP mod | Sfp inh | gsp agonist | Menin MLL FP FL
15 | CCCc1ccc2oc(C(=O)N(Cc3ccncc3)CC3CCCO3)c(C)c2c1 (configuration not stated) | -6 | ? | 6 | -0.5% | -10% | -60%[inhibitor] | .
16 | Fc1ccc(-c2nn3c(C4COc5ccccc5O4)nnc3s2)cc1 (configuration not stated) | -4 | 1% | 17 | 4.9% | 40µM* | 23% | 4.4

More records follow:
(21) O=C(O)c1ccc(Cn2nnc3sc4c(c3c2=O)CCCC4)cc1
(22) O=C(Cn1cnc2ccccc21)N/N=C/C(Br)=C/c1ccccc1
(23) CC(=NNC(=S)Nc1ccc(C)cc1)c1ccccn1
(24) CC1=CC(C)(C)Nc2ccc(OC(=O)c3cccnc3)cc21
(25) Cc1cccc(-n2c(O)c(C=NC3CCS(=O)(=O)C3)c3ccccc3c2=O)c1C (configuration not stated)
(26) CCOC(=O)Cn1c(=N)n(Cc2ccccc2F)c2ccccc21
(27) CCc1ccc2c(c1)C1(NN=C(c3ccc(C)cc3)S1)C(=O)N2 (configuration not stated)
(28) CC1=C(C)Cc2c(OC(=O)c3ccccc3)ccc(OC(=O)c3ccccc3)c2C1
(29) O=C1CC(N2CCN(c3nc4ccccc4s3)CC2)C(=O)N1Cc1cccs1 (configuration not stated)
(30) O=C(c1ccc2c(c1)N(Cc1ccccc1)C(=O)c1ccccc1S2)N1CCCC1

Screen / compound no.,21,22,23,24,25,26,27,28,29,30
TRPV1 potentiator,7,9,.,0,-1,23,?,-4,5,6
gsp antag,-10%,-13%,1%,-21%,1%,-2%,22%,.,2%[15.4 µM],?
TRPML1 blocker,-3,-2,-9,21,2,-7,14,.,47,18
ClpP mod,.,1.2%,-30%,9.4%,.,-1.4%,-1.9%,.,-1.1%,0.8%
Sfp inh,-18%,-6%,.,?,-1%,2%,-9%,10%,-21%,5%
gsp agonist,-1%[15.4 µM],-24%,?,?,1%[15.4 µM],?,-18%,.,-5%,5%
Menin MLL FP FL,4.2,-5.2,.,0.8,0.2,-0.8,-0.4,-1.6,1.9,5.5

Compound profiles, from the list above. Values in the order: TRPV1 potentiator	gsp antag	TRPML1 blocker	ClpP mod	Sfp inh	gsp agonist	Menin MLL FP FL
`CCOC(=O)Cn1c(=N)n(Cc2ccccc2F)c2ccccc21` as listed: 23	-2%	-7	-1.4%	2%	?	-0.8
`O=C(NC1CCCc2ccccc21)C1CCN(S(=O)(=O)N2CCCCCC2)CC1` (configuration not stated) as listed: -12	2%	-14	3.3%	-1%	-37%[inhibitor]	-0.5
`COc1cc(C(C)=O)ccc1Oc1cnccn1` as listed: 3	13%	4	3.1%	2%	18%[15.4 µM]	-6.3
`Cc1ccc(OCCOCCN2CCCC2)c(Br)c1` as listed: -5	8%	-17	-0.9%	-10%	-11%	5.1

The list goes on:
(31) COc1ccc(/C=C/C(=O)Nc2cc(F)ccc2C)cc1S(=O)(=O)N1CCOCC1
(32) COc1ccc2nc(NC(=O)c3sc4nc(C)cc(C)c4c3N)sc2c1
(33) CCN(CC)S(=O)(=O)c1ccc(N2CCCCC2)c(NC(=O)/C=C/c2cc(OC)c(OC)c(OC)c2)c1
(34) CCN(CC)CCCNCC(=O)Nc1ccc(OC)c(Cl)c1
(35) Nc1nonc1-n1nnc(C(=O)N/N=C/c2ccccc2F)c1CN1CCc2ccccc21
(36) Cc1ccc(S(=O)(=O)N2CCOCC2)cc1C(=O)Nc1cccc(S(=O)(=O)N2CCCC2)c1
(37) Cc1nc(-c2cccc3ccccc23)ccc1C(=O)O
(38) COc1ccc(CC(NC(C)=O)C(=O)NC2CCN(c3nc(C)cc(C)c3C#N)CC2)cc1OC (configuration not stated)
(39) O=C1C=C(c2cccc(O)c2)CCC1
(40) COC(=O)c1ccc2c(=O)n(Cc3ccc4c(c3)OCO4)c(=S)[nH]c2c1

Screen / compound no.,31,32,33,34,35,36,37,38,39,40
TRPV1 potentiator,14,-1,-3,2,0,8,-3,-9,.,12
gsp antag,-16%,1%,0%,.,-14%,.,-3%,-6%,-1%,10%
TRPML1 blocker,-6,51,5,.,6,19,1,5,-7,12
ClpP mod,.,?,-22%,.,-0.4%,.,-1.8%,4.3%,0.9%,-2.0%
Sfp inh,11%,-15%,7%,7%,2%,10%,-1%,1%,.,-2%
gsp agonist,26%,-10%,-11%,.,-4%,-2%[15.4 µM],-13%[15.4 µM],6%,?,-7%
Menin MLL FP FL,-1.2,0.2,3.9,-0.3,-6.2,2.5,-5.1,-4.5,.,0.1

(41) CCCc1ccc(C2C3=C(CC(C)(C)CC3=O)NC3=C2C(=O)c2ccccc23)cc1 (configuration not stated)
(42) Cc1ccc(C(=O)c2ccccc2C(=O)OCC(=O)NCC2CCCO2)cc1 (configuration not stated)
(43) O=C1c2ccccc2C(=Nc2ccccc2)C1c1cccc(Br)c1 (configuration not stated)
(44) CN(NS(=O)(=O)c1ccccc1)c1nc2ccccc2nc1C(F)(F)F
(45) Cc1cc(N2CCOCC2)nc(SCC(=O)c2ccc(Cl)cc2)n1
(46) Cc1nn(-c2ccccc2)nc1C(=O)Nc1nnc(C(F)(F)F)s1

Screen / compound no.,41,42,43,44,45,46
TRPV1 potentiator,-11,?,-5,-5,-10,?
gsp antag,-15%,1%,0%,-13%,?,-25%
TRPML1 blocker,-3,1,30,19,21,1
ClpP mod,-0.4%,.,1.4%,-0.4%,-1.6%,.
Sfp inh,-12%,19%,11%,10%,-9%,10%
gsp agonist,-29%,7%,-9%,6%,14%,2%[15.4 µM]
Menin MLL FP FL,1.6,-4.7,2.1,1.8,-1.1,4.3
